Compound activity: PubChem, several laboratories
YopH PTP inh: inhibitors of Yersinia enterocolitica YopH tyrosine phosphatase | fluorescence Ex485/Em525 | inhibition, %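 (about 10 µM by stock and volumes)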 | 0.16% of 140,000 active | AID 898;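 active = inhibition of 50% or more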;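 note: controls were vehicle for no effect and minimum signal wells for full effect; inactives centre near -20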
Mtb H37Rv: M. tuberculosis H37Rv growth inhibitors, H37Rv strain (AID 1626); 0.95% of 220,000 active; M. tuberculosis H37Rv growth inhibition; higher % means a stronger effect; one-dose inhibition, % at 10 µM; IC50 in µM for titrated hits;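 active = confirmed in a dose series; inconclusive = inhibition above 80% but not taken into the dose series; inactive = below 80% or under 30% at every dose of the series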;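 note: bacteria incubated seven days before Alamar blue readout; 0% = bacteria only wells and 100% = bacteria with antibiotic wells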
RecA intein inh: inhibitors of M. tuberculosis RecA intein splicing; 0.75% of 290,000 active; inhibition, %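 (about 9 µM by stock and volumes)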; P9WHJ3; cell-free RecA intein splicing, fluorescence; in the data active = inhibition above about 30%; inconclusive = no clear call, values can overlap the other calls;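 note: 0% = vehicle wells and 100% = reference inhibitor control wells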
Target sequence (P9WHJ3 whole entry, looked up): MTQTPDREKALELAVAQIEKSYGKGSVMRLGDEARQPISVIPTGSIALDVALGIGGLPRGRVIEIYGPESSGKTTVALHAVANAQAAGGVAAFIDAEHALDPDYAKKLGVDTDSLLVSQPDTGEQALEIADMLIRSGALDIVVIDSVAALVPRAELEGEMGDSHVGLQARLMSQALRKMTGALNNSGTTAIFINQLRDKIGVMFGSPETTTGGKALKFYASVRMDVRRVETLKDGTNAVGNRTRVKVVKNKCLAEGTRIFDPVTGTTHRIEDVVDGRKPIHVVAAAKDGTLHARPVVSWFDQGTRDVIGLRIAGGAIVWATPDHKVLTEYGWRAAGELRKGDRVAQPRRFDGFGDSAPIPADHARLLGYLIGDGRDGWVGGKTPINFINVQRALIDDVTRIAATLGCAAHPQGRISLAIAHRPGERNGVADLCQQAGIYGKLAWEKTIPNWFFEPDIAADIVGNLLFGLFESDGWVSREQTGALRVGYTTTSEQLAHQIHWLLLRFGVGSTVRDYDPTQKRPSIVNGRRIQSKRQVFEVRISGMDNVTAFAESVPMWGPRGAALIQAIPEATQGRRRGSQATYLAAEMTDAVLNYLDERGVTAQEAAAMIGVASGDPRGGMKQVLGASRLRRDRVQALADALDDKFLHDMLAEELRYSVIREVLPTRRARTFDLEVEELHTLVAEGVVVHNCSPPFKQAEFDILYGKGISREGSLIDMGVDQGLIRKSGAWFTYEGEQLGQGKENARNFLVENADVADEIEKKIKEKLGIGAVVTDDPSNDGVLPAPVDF
Arbovirus inh: arbovirus infection inhibition | arbovirus infection cell-based antiviral screen | inhibition, % at 10 µM | 0.37% of 200,000 active | AID 1251;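 active = inhibition from about 30%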;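 note: bluetongue infection of BSR cells; cell survival read as ATP light after 72 h; 0% = infected wells without compound and 100% = uninfected wells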
Mtb betalactam: beta-lactam sensitization of Mtb H37Rv. AID 434955. inhibition, % at 25 µM. M. tuberculosis H37Rv growth with meropenem, percent inhibition; hits of this screen are not shown here. 0.27% of 330,000 active;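 active = about 74% or more and at least 40 points above the plate without the antibiotic, then above 30% in a dose series; inconclusive = first-round hits that could not be retested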;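 note: growth measured after seven days incubation then overnight dye step; 0% = bacteria only wells and 100% = bacteria with antibiotic; twin plates without the antibiotic show which effects depend on it; some results filed as inactive read as strong as hits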
Arbovirus inh repeat: further read-out of Arbovirus inh, marked with its call; inhibition, %; measured here: 10K subset replicate screen; many hits read low in the repeat;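 first of two repeat runs on a subset; 0% = infected and 100% = uninfected wells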
Active calls of the source: *; ? = inconclusive; nt = not tested or not shown.

SMILES	YopH PTP inh	Mtb H37Rv	RecA intein inh	Arbovirus inh	Mtb betalactam	others
Cn1nc(C(=O)OCC(=O)NCCc2ccccc2)c2ccccc2c1=O	nt	nt	-2.3	nt	-5
Cc1ccc(S(=O)(=O)CC(=O)Nc2ccccn2)cc1	nt	nt	-1.4	nt	-2
Cc1ccc(Cn2cc(C=O)c(-c3ccc(F)cc3)n2)cc1	nt	nt	-0.6	nt	1
CCc1c(C(=O)NNC(=S)NC2CCCCC2)csc1C	nt	11%	3.6	-5	-5
O=c1cc(C(F)(F)F)[nH]c2c(C(F)(F)F)cccc12	-28	-3%	-2.8	16	4
CC1(C)Cc2c(cnn2-c2ccccc2)C(NC(=O)CCc2ccncc2)C1 (stereo not drawn)	nt	nt	-2.0	nt	?
Cc1nnc2sc(-c3csc4c3CCCC4)nn12	-61	-4%	1.6	1	-5
CCOC(=O)COc1nc2c(c(-c3ccco3)c1C#N)CCc1ccccc1-2	nt	39%	3.2	nt	47
Clc1ccc(-c2n[nH]c3c2CCCC3)cc1	nt	2%	-1.0	5	97
COc1cc2[nH]c(=O)n(CCCCCC(=O)NCCCN3CCOCC3)c(=O)c2cc1OC	-1	2%	-1.2	6	4	Arbovirus inh repeat=1
O=C1CSC(=Nc2ccccc2Cl)N1	-2	-2%	nt	-1	9
Cc1ccc(S(=O)(=O)N2CCOC2C(Cl)(Cl)Cl)cc1 (stereo not drawn)	nt	1%	-1.3	nt	-1
CCc1noc(C)c1C(=O)Nc1nc(-c2ccccc2)cs1	nt	nt	1.9	nt	66
COc1cc(C(=O)NCCOc2ccccc2)cc(OC)c1OC	nt	nt	-1.6	nt	-6
Cc1cc(C)c(NC(=O)C(C)(C)C)c(Cl)c1	-7	-5%	0.4	-9	17	Arbovirus inh repeat=1
CCOc1cccc(OCCCCn2cnc3ccccc3c2=O)c1	nt	11%	13	12	15
COc1ccc(NC(=O)Cn2c(=O)oc3cc(S(=O)(=O)N4CCCC4)ccc32)c(OC)c1	nt	nt	-2.8	nt	-5
CCN(CC)S(=O)(=O)c1ccc(N2CCOCC2)c(NC(=O)c2ccc(OC)c([N+](=O)[O-])c2)c1	nt	6%	-3.3	nt	-11
COc1ccccc1-c1nnc(SCc2nc3ccccc3[nH]2)n1C	11	-9%	2.4	4	9
Cc1cccc2cc(/C=C3\N=C(c4ccccc4)OC3=O)c(N3CCOCC3)nc12	-37	nt	1.7	2	95
O=C(O)c1cc2sccc2s1	-52	-5%	-1.3	-6	4
O=C(CCC1CCCCC1)NNC(=O)c1cnccn1	-16	23%	2.1	-32	97
Cc1cccc(-n2c(C)nc3c(cnn3-c3ccc(F)cc3)c2=O)c1	-41	8%	1.8	3	1
COc1ccc(CN(CCO)CCO)cc1[N+](=O)[O-]	-27	1%	4.6	7	7

Some of these compounds in order of SMILES length, ascending:
SMILES	YopH PTP inh	Mtb H37Rv	RecA intein inh	Arbovirus inh	Mtb betalactam	others
O=C(O)c1cc2sccc2s1	-52	-5%	-1.3	-6	4
COc1ccc(CN(CCO)CCO)cc1[N+](=O)[O-]	-27	1%	4.6	7	7
CCc1noc(C)c1C(=O)Nc1nc(-c2ccccc2)cs1	nt	nt	1.9	nt	66
COc1ccc(NC(=O)Cn2c(=O)oc3cc(S(=O)(=O)N4CCCC4)ccc32)c(OC)c1	nt	nt	-2.8	nt	-5

(listing goes on)
SMILES	YopH PTP inh	Mtb H37Rv	RecA intein inh	Arbovirus inh	Mtb betalactam	others
COc1ccccc1NC(=O)C1=C(C)NC2=C(C(=O)CC(c3ccc(OC)c(OC)c3)C2)C1c1coc2ccccc2c1=O (stereo not drawn)	-22	77%	18	-6	91
COc1ccc(Cl)cc1NC(=O)c1cccnc1	-55	-4%	0.2	-17	-8
COc1ccc(-c2c(-c3ccccc3OC)sc3ccccc23)cc1	nt	nt	-1.0	nt	1
O=C(N/N=C/c1ccc(OC(=O)c2ccc(Br)cc2)cc1)c1ccncc1	nt	nt	1.2	nt	98
Cc1ccc(/C=N/OC(=O)c2nn(C)cc2Cl)cc1	nt	12%	1.6	0	3
Cc1c(Cl)cccc1NC(=S)N1CCN(c2ccc([N+](=O)[O-])cn2)CC1	nt	-11%	0.0	nt	-1
Nc1nc(CSc2nnnn2-c2ccccc2)nc(N2CCCc3ccccc32)n1	-6	2%	nt	-2	55
CC(=O)c1ccc(NC(=O)COC(=O)CCC(=O)c2cccs2)cc1	-22	3%	-1.7	-1	-6
COc1ccc(CNC(=O)c2ccc(Cl)c(NC3=NC4CS(=O)(=O)CC4S3)c2)cc1 (stereo not drawn)	nt	nt	-3.1	nt	1
Nc1c(-c2cccs2)cnn1-c1nc(-c2ccc(F)cc2)cs1	3	-6%	-0.9	3	-6
O=C(Nc1cc(Cl)c(O)c(Cl)c1)C1CCCO1 (stereo not drawn)	-12	-14%	0.2	-6	-25
COCCCNC(=O)c1ccc(Cn2c(=O)c3ccccc3n(CC(=O)NCCc3ccc(OC)c(OC)c3)c2=O)cc1	nt	-3%	0.2	-12	6
Cc1nc(C)c(C(=O)N/N=C/c2c[nH]c3ccccc23)s1	1	-2%	3.0	-7	-5
O=C(COC(=O)c1n[nH]c(=O)c2ccccc12)c1ccc(Br)cc1	nt	-2%	2.3	7	-1
Cc1ccc(NC(=O)CSc2ccc(Br)cc2)cc1S(=O)(=O)N1CCOCC1	nt	nt	1.9	nt	-2
Fc1ccccc1NC(=S)Nc1cccnc1	nt	-4%	-0.9	16	0
COC(=O)c1cccc(NC(=O)N2C[C@H]3C[C@@H](C2)c2cccc(=O)n2C3)c1	nt	nt	-2.5	nt	-3
CC1CCN(C(=O)Cn2cc(C(=O)C3CC3)c3ccccc32)CC1	-23	-11%	nt	-11	-4
COc1ccccc1NC(=O)CSc1ccc(-c2ccco2)nn1	nt	nt	2.7	nt	-2
CCS(=O)(=O)Nc1ccc(C(=O)CC2(O)C(=O)Nc3ccccc32)cc1 (stereo not drawn)	-25	0%	-3.4	2	?
Cc1sc(NC(=O)c2cc3ccccc3oc2=O)c(C(=O)OC(C)C)c1-c1ccccc1	-22	-5%	0.9	-2	58
O=C(O)/C=C/C(=O)NCc1csc2ccccc12	nt	-1%	-0.3	nt	-1
COc1ccc2[nH]c(C(=O)N(C)Cc3ccccc3)c(C)c2c1	nt	nt	-0.7	nt	-5
CN1CCN(C2=C(NS(=O)(=O)c3cccs3)C(=O)c3ccccc3C2=O)CC1	nt	-4%	8.0	nt	3
Cc1[nH]c(-c2ccco2)nc1C(=O)O	-33	1%	0.8	-4	-22
CCOc1ccc(NC(=O)CSc2nnc(C3CC3)n2C)cc1	nt	27%	1.6	2	-9
Cc1cccc(N2C(=O)CC(N3CCN(c4ccccn4)CC3)C2=O)c1 (stereo not drawn)	nt	1%	nt	3	1
CSCCC(NC(=O)c1ccccc1)C(=O)OCC(=O)c1ccc[nH]1 (stereo not drawn)	-40	-5%	-3.0	0	-9
COc1ccc(OC)c(NC(=O)c2cc(-c3cc(C)c(C)cc3O)n[nH]2)c1	nt	nt	-1.3	nt	2
COCCCNC(=O)/C=C/c1cccc(Cl)c1	-22	-5%	-0.8	3	2
NNc1ccc2c(C(F)(F)F)cc(C(F)(F)F)nc2n1	nt	6%	-8.0	-3	-2
O=C(COC(=O)c1ccccc1)NCc1cccs1	-30	-2%	-0.5	6	-1
CC(C)c1c(C(=O)N/N=C2\CCc3ccccc32)nnn1-c1nonc1N	nt	nt	-0.3	nt	-3
Cc1ccc(Nc2cc(C)nc3nc(C)nn23)c(C)c1	-33	nt	3.1	5	3	Arbovirus inh repeat=-1
C/C(N)=C(/C#N)C(=O)CSc1nc2ccccc2c(=O)n1Cc1ccc(F)cc1	nt	1%	10	nt	45
CCCCCCC/C=N/Nc1nnc(Cc2ccccc2)c(=O)[nH]1	nt	nt	0.6	nt	6
COc1cccc(/C=N/n2c(COc3ccccc3)n[nH]c2=S)c1OC	nt	nt	1.5	nt	?
CCOC(=O)N1CCN(C(=O)CCn2nc(-c3ccc(Cl)cc3)ccc2=O)CC1	-30	-11%	0.3	8	-7
O=C1C(=O)N(CCCn2ccnc2)C(c2ccc(Cl)cc2)/C1=C(\O)c1ccc2c(c1)OCCO2 (stereo not drawn)	nt	nt	-11	nt	-5
CCc1ccc(-c2cc(C(F)(F)F)n3nc(C(=O)Nc4cnn(Cc5ccc(C)cc5)c4)cc3n2)s1	-4	-2%	-21	-24	0
Cc1ccccc1NC(=O)c1oc(=O)c2ccccc2c1-c1ccccc1	-6	4%	2.4	0	3
COc1ccc(S(=O)(=O)/C(C#N)=C/Nc2ccc(NC(C)=O)cc2)cc1	nt	nt	-3.6	nt	2
COc1nccc(Nc2ccccc2)c1C#N	-33	8%	nt	-4	-2
O=C(NN1CCOCC1)c1ccccc1Br	nt	nt	0.9	nt	2
Cc1ccc(S(=O)(=O)N(CC(=O)N2CCOCC2)c2ccc(Br)cc2)cc1	nt	nt	-1.2	nt	-1
Cc1cc(OCc2cc(C(=O)N(C)C3CCOCC3)no2)cc(C)c1Cl	nt	nt	1.6	nt	?
COc1ccc(N2CCN(C(=O)CSc3nnnn3-c3ccc4c(c3)OCCO4)CC2)cc1	-43	3%	-0.5	11	7
CCN(CC(=O)NCCc1ccc(F)cc1)Cc1nc2ccccc2c(=O)[nH]1	nt	-11%	-2.5	nt	2
COc1ccccc1NC(=O)c1ccccc1-c1nc(-c2ccccc2OC)no1	-36	-1%	6.0	-6	-8
NCCCC(=O)N1c2ccccc2Sc2ccccc21	nt	2%	-2.4	-8	-4	Arbovirus inh repeat=-1
CC1(C)CC(=O)C(CC(=O)NC(=O)NCc2ccccc2)=C(O)C1	-41	-5%	-1.1	7	7
O=C(NCc1cccs1)C1CCCN1C(=O)Nc1ccccc1Cl (stereo not drawn)	nt	nt	-0.5	nt	3
O=C(CN1C(=O)NC2(CCCC2)C1=O)NCCN1C(=O)S/C(=C\c2ccccc2F)C1=O	nt	nt	-0.4	nt	-11
CCN(CC)S(=O)(=O)c1cc([N+](=O)[O-])ccc1NNC(=O)Nc1ccccc1OC	-9	11%	6.8	6	-5
Cn1c2ccccc2c2cc(C(=O)OCC(=O)N3CC(=O)Nc4ccccc43)sc21	-51	9%	1.2	-7	6
COc1cc(C(=O)NNC(=O)Nc2ccc([N+](=O)[O-])cc2)cc(OC)c1OC	nt	-2%	3.4	3	-5
O=c1cc(CN2CCc3ccccc3C2)nc2sccn12	nt	-2%	-0.6	6	-6
CC(=O)[C@@]1(O)CC[C@H]2[C@@H]3C[C@H](C)C4=CC(=O)C=C[C@]4(C)[C@@]3(F)[C@@H](O)C[C@@]21C	-33	-4%	-0.2	22	5
COc1ccc(NS(=O)(=O)c2ccc(C)c(C(=O)N3CCC3)c2)cc1	nt	nt	-0.2	nt	-8
Cc1cc(C)c(C2C(C#N)=C(N)Oc3n[nH]c(C)c32)cc1CN1CCOCC1 (stereo not drawn)	-28	-4%	-1.8	5	-7

Further structures:
SMILES	YopH PTP inh	Mtb H37Rv	RecA intein inh	Arbovirus inh	Mtb betalactam	others
O=C(c1cncs1)N1CCCC(CNS(=O)(=O)c2cccs2)C1 (stereo not drawn)	nt	-4%	-0.4	4	2
COc1ccc(NC(=O)CSc2nnc(-c3cccs3)n2Cc2ccco2)cc1OC	-50	2%	0.9	6	-8
CCCC(=O)Nc1ccccc1NC(C)=O	-14	-9%	-1.8	1	6
CN(C)c1ccccc1C(=O)N1CCCC(C(=O)c2ccc3ccccc3c2)C1 (stereo not drawn)	nt	-5%	6.2	10	-2
COc1ccc(-n2nc(C(=O)c3cccs3)cc(-c3nc4ccccc4[nH]3)c2=N)cc1	-32	nt	-2.4	-37	-5
O=C1COc2ccc(C(=O)COC(=O)c3cc(S(=O)(=O)NCc4ccccc4)ccc3O)cc2N1	nt	-5%	-0.3	nt	-4
COc1ccc(/C=N/NC(=O)c2ccccc2O)cc1COc1ccccn1	nt	2%	-2.6	nt	16
O=C(Nc1ccc2oc(-c3ccccc3F)nc2c1)c1ncn[nH]1	-32	nt	1.7	-5	95
COc1ccc(-n2c(C)nnc2SCC(=O)N2C(C)CCCC2C)cc1 (stereo not drawn)	-9	-8%	11	8	-5
COc1ccc(CN2CCCCC2c2cccnc2)c(OC)c1C (stereo not drawn)	-36	5%	1.7	8	1	Arbovirus inh repeat=1
O=C(CCC1CCCC1)c1c(O)c2ccccc2oc1=O	-47	16%	4.0	-9	99	Arbovirus inh repeat=-20
COCC(C)n1c(C)cc(C(=O)COc2ccc(C)nc2[N+](=O)[O-])c1C (stereo not drawn)	nt	-1%	-7.1	-4	-1
COc1ccc(N(CC(=O)Nc2ccc3c(c2)OCCO3)S(=O)(=O)c2cccnc2)cc1	-27	2%	nt	5	-2	Arbovirus inh repeat=1
CCN(CC)CC(=O)Nc1ccc(C)cc1C(=O)c1ccccc1	nt	1%	1.9	nt	0

Only part of the results is shown. The share of hits here may be higher or lower than overall.
